Source: PubChem BioAssay
VACV Venus inh = vaccinia inhibition (Venus reporter); Vaccinia virus Venus reporter expression, fluorescence; Potency, µM (series often up to 36.5 µM), inactives show top-dose activity change, negative = inhibition, hits mostly inhibitors; actives 0.46% (n = 330,000); AID 720580; active means well fitted inhibition curve with a large enough effect; inconclusive means small, poorly fitted or top-dose-only effect; inactive means no such curve, though single readings can be large or run the other way; tested in A549 cells; also: nearly all actives have a fitted effect of over 30% in size; inactives centre near -10
VACV mCherry inh = vaccinia inhibition (mCherry reporter); Vaccinia virus mCherry reporter infection, fluorescence; about a quarter of the inactives have no number; Potency, µM (top dose mostly 36.5 µM), inactives show at the top dose activity change, negative = inhibition, most hits filed as inhibitors; actives 0.63% (n = 310,000); active = well fitted inhibition curve with a large enough effect; inconclusive = small, poorly fitted or top-dose-only effect; inactive = no such curve, though single readings can be large or run the other way; tested in A549 cells; also: nearly all actives have a fitted effect of over 35% in size; inactives centre near -10
* hit, by the source's call; i = inactive; ? = inconclusive; . = no result given; & = joins results of further samples; [ ] = remark or other dose. % is scaled to controls: 0 for no effect and ±100 for the full control effect; potency is read from the fitted curve at half-maximal effect.

SMILES | VACV Venus inh | VACV mCherry inh
Cc1ccc(S(=O)(=O)c2nc(-c3ccccc3)oc2SCC(=O)NC2CCCCC2)cc1 | -1.3% | -18.9%
CCc1ccc(C(O)(CC)C(CN2CCOCC2)c2ccccc2)cc1 (configuration not stated) | 1.2% | -15.7%
CCCCCCn1cnc2c(c1=O)c1nc3ccccc3nc1n2/N=C/c1ccco1 | -9.6% | .
CC1(C(=O)Nc2cccc(C#N)c2)CCN1C(=O)C1(c2ccccc2)CC1 (configuration not stated) | 8.4% | -2.2%
COc1cc(/C=C/C(=O)OC2CC3CCC2(C)C3(C)C)ccc1O (configuration not stated) | -8.7% | -2.1%
Cc1ccccc1N=C/C=C1/C=C(c2ccccc2)OC(C)(C)O1 | -20.0% | -17.0%
Cc1ccc(Cl)cc1N(C)C(=O)C1CCCN(c2ncnc3onc(-c4ccc(F)cc4)c23)C1 (configuration not stated) | -16.0% | -21.8%
CN(C)C(=S)Nc1ccc(Cl)cc1 | -3.3% | i
O=C(Nc1cccc(Cl)c1)Nc1ccon1 | -30.0% | ?
COc1ccc(NC(=O)CCc2nnc3n(CC(C)C)c(=O)c4ccccc4n23)cc1 | -9.2% | -17.1%
O=C(CSc1nc2ccccc2c(=O)n1-c1cccc(C(F)(F)F)c1)NC1CC1 | -10.2% | -14.5%
Cc1cc(C=O)c(C)n1C1CC1 | -7.1% | -7.6%
CN(C1=C(N2CCCCC2)C(=O)c2ccccc2C1=O)c1ccccc1 | -7.8% | -13.5%
O=C(CCN1C(=O)/C(=C/C=C/c2ccccc2)SC1=S)Nc1cccnc1 | 1.6% | -15.1%
O=C(c1ccc(Br)o1)N1CCN(C23CC4CC(CC(C4)C2)C3)CC1 | -13.8% | -18.2%
CC(=O)c1cn(CC(=O)Nc2cccc(C)c2C)c2ccccc12 | -25.9% | -18.7%
CCOC(=O)c1c(C2CC2)csc1NC(=O)COC(=O)CCS(=O)(=O)c1ccc(C)cc1 | -8.9% | i
CCOC(=O)Cc1csc(NC(=O)c2cc(C)cc(C)c2)n1 | -15.9% | i
COC(=O)C1=C(C)N(CCCC(=O)O)C(=O)NC1c1ccc(C#N)cc1 (configuration not stated) | -6.6% | i
O=C(NCCc1ccccc1)C1CCN(c2ncnc3c2nc2n3CCCCC2)CC1 | -7.4% | i
N=c1n(CCO)c2ccccc2n1CCOc1ccc(F)cc1 | -4.0% | -16.5%
CSC(=Nc1ccccc1)Nc1ccccc1 | -9.8% | -8.5%
CCCNC(=S)Nc1ccc2nc(-c3ccccn3)c(-c3ccccn3)nc2c1 | -2.8% | -8.4%
CCOC(=O)C1CC(C)=C(C)CC1C(=O)O (configuration not stated) | -6.5% | -0.9%
Cc1ccc(C(OC(=O)c2ccco2)C(=O)NC(C)(C)C)cc1 (configuration not stated) | -9.8% | -8.6%
O=C(NCc1ccc2c(c1)OCO2)C1CCN(S(=O)(=O)c2ccc(Br)s2)CC1 | -25.2% | .
CC1(C)CC(=O)C(C=NCCCO)=C(O)C1 | -9.0% | -4.5%
CCOC(=O)N1CCc2c(sc3c2c(=O)n(-c2ccc(Cl)cc2)c(=O)n3CC(=O)Nc2ccccc2)C1 | -20.8% | ?
O=C(NC1CCCC1)C(c1cccs1)N(C(=O)c1ccno1)c1ccccc1 (configuration not stated) | -6.3% | -11.4%
NC(=O)Cc1ccc(C(=O)c2ccc(Cl)cc2Cl)s1 | 6.6% | i
CCn1nc(-c2ccccc2)c(-c2ccccc2)c(C(=O)Nc2ccccc2C(N)=O)c1=O | -4.4% | 4.4%
CCCCNC(=S)Nc1ccc2cn[nH]c2c1 | -7.1% | -13.2%
Cc1[nH]c2ccccc2c1C(=O)C(=O)NCc1cccs1 | -0.2% | i
CC(=O)c1ccc(NC(=O)CSc2nc(-c3ccccc3F)nc3c2c(=O)n(C)c(=O)n3C)cc1 | -11.6% | -4.4%
COc1ccc(Br)cc1/C=N/Nc1ccc(Cl)c(C(=O)O)c1 | -4.1% | i
CC1(C)CC[C@]2(C(=O)O)CC[C@]3(CO)C(=CCC4[C@@]5(C)C[C@H](O)[C@H](O)[C@@](C)(C(=O)O)C5CC[C@]43C)[C@@H]2C1 (some centres not stated) | -10.4% | -22.6%
Cc1ccc(N(C(C)C(=O)O)S(=O)(=O)c2cccnc2)cc1 (configuration not stated) | 1.0% | -2.9%
CCOC(=O)c1cc(-c2ccccc2)n(-c2cccc(C(=O)Nc3ccc(OC)cc3)c2)c1C | -7.5% | 0.6%
COc1ccc(Cn2c(=O)c3cccnc3n(CC(=O)Nc3c(C)cc(C)cc3C)c2=O)cc1 | -2.7% | -13.1%
CN(CC(=O)NCCc1ccc(F)cc1)Cc1cccc(Cl)c1 | -3.2% | -12.0%
Cc1noc(C)c1S(=O)(=O)N(C)Cc1ccccc1 | -8.6% | i
Cc1cccc(NC(=O)c2cccc(NC(=O)c3ccco3)c2)c1C | -19.0% | i
O=[N+]([O-])c1ccc(N2CCN(c3ccccc3O)CC2)cc1 | 9.2% | ?
Cc1nn2c(=O)cc(COC(=O)COc3ccccc3C)nc2s1 | -1.4% | 4.1%
CCNCCC(=O)N1c2ccccc2Sc2ccc(NC(=O)OCC)cc21 | -22.0% | .
Cn1cnnc1Sc1ccc(CN2CCOc3ccc(C4=Cc5ccccc5CC4)cc3C2)o1 | -6.2% | -23.0%
O=C(c1ccccc1)c1ccc2nc(Nc3cc(Cl)ccc3O)c3nncn3c2c1 | -7.4% | i
COc1ccc(C(=O)N(c2ccc(C)cc2)C2C=CS(=O)(=O)C2)cc1OC (configuration not stated) | -15.3% | i
CC(C)NC(=O)C1(C)CSCC(=O)N1Cc1cccc(F)c1 (configuration not stated) | -0.8% | -1.9%
CC1(c2ccccc2)NC(=O)N(CC(=O)Nc2ccccc2C(=O)N2CCCCC2)C1=O (configuration not stated) | -8.2% | -13.5%
Cc1nc2ccn(Cc3cccs3)c(=O)c2cc1C(=O)N1CCN(c2ccccc2)CC1 | -9.3% | i
Cn1nc(C(=O)OCC(=O)Nc2ccc3ccccc3c2)c2ccccc2c1=O | 8.3% | 0.1%
COc1ccc(N2CCN(CCCNC(=O)c3c(C)nn(-c4ccc(F)cc4)c3-n3cccc3)CC2)cc1 | -10.7% | -24.9%
O=C(COC(=O)Cc1ccccc1F)NNC(=O)c1ccc(Cl)cc1 | -6.7% | -20.2%
COc1ccc(/C(O)=C2/C(=O)C(=O)N(CC3CCCO3)C2c2cccc(O)c2)cc1 (configuration not stated) | -11.9% | .
Cc1ccc(S(=O)(=O)N2CCN(C(=O)c3ccccc3-c3nc4ccccc4s3)CC2)c(C)c1 | -7.2% | i
COc1ccccc1NC(=O)C1=C(C)NC(=O)NC1c1ccc(C)s1 (configuration not stated) | -8.3% | -5.1%
CCc1ccc(OCCCC(=O)Nc2ccc(S(N)(=O)=O)cc2)cc1 | -4.1% | i
COc1ccc(CNC(=O)C2CCN(C(=O)N3CCOc4ccc(C)cc43)CC2)cc1 | -11.0%&-13.6% | -7.9%
COc1ccc(C(C(=O)NCC2CCCO2)N(C(=O)c2snc(C(N)=O)c2N)c2ccc(C)cc2)cc1OC (configuration not stated) | -5.2% | -4.0%

Going on with the list:
SMILES | VACV Venus inh | VACV mCherry inh
COc1ccc(-c2ccc3c(c2)S(=O)(=O)c2cccc(C(=O)N4CCN(c5c(Cl)cncc5Cl)CC4)c2C3=O)cc1OC | -11.0% | -7.5%
CCC(C)(C)NC(=O)C(c1cccn1C)N(Cc1ccc(C)cc1)C(=O)Cn1nnc2ccccc21 (configuration not stated) | -22.6% | .
O=C(CN1N=C(c2ccc(Cl)cc2)CCC1=O)NCc1cccnc1 | -5.1% | -13.1%
COc1cc(CN2CCN(C3CCC3)CC2CCO)cc(OC)c1 (configuration not stated) | 2.9% | -5.1%
CCOc1ccc(-c2cc(C(=O)NCCc3ccc(C)cc3)c3ccccc3n2)cc1 | -10.5% | -13.3%
COc1ccc(NC(=O)Cn2c(-c3ccc(OC)cc3)cn(-c3ccc(C)cc3)c2=O)cc1 | -17.4% | -24.8%
NNC(=S)NCc1ccco1 | -14.6% | i
Cc1ccc(C(=O)COC(=O)c2cc(-c3ccc(Cl)cc3)nc3ccccc23)cc1 | 7.9% | -6.3%
Cc1ccc(C(C)C)c(OCC(=O)NC(=S)Nc2ccccc2N2CCOCC2)c1 | 0.0% | -14.1%
Cc1ccc(Sc2c(C)nn(-c3ccccc3)c2OC(=O)CC(C)C)cc1 | -19.8% | -13.5%
Cc1c(C(O)CN2CCC(C(N)=O)CC2)c2ccccc2n1C (configuration not stated) | -8.7% | .
Cc1ccc(NC(=O)CCC(=O)N/N=C/c2ccco2)c(C)c1 | -6.0% | -15.7%
COc1ccc(-n2nc(C(=O)Nc3cc(C)ccn3)c3c4ccccc4n(C)c3c2=O)cc1 | 0.9% | 5.8%
CC(=O)Nc1ccc(NC(=O)COc2c(C)cc(Br)cc2C)cc1 | -10.0% | -11.3%
CC(=Nc1ccc2c(c1)CCC2)c1c(O)n(-c2ccccc2)c(=O)[nH]c1=O | -9.3%[7.34 µM] | i[7.34 µM]
CCOC(=O)CC(=O)CSc1nc2c(c(C)c1C#N)CCC2 | -15.5% | ?
COc1cc(CNC(=O)c2cccc(COc3ccc(Cl)cc3)c2)cc(OC)c1 | -29.3% | ?
Cc1cc(Oc2ccc(Cl)cc2)nc(SCC(=O)c2ccccc2)n1 | ? | -27.6%
CCOC(=O)C1CCN(C(=O)C2(NC(=O)Nc3ccccc3Cl)CCCCC2)CC1 | -16.9% | -8.4%
CN(CCc1ccccc1)C(=O)c1cccc(NC(=O)Cc2cccc(NC(=O)C3CCN(C(=O)C4CCC4)CC3)c2)c1 | -13.0% | -19.2%
CCCN(Cc1ccc(N(C)C)cc1)CC1CC1 | -16.0% | -5.9%
Cc1cc(C)n2nc(C(=O)OCC(=O)N(Cc3ccccc3)C(C)C)nc2n1 | 2.8% | i
O=C(COC(=O)C1CC1)NCCc1ccc(Cl)cc1 | -10.3% | i
O=C(COC(=O)/C=C/c1ccco1)NCc1ccc2c(c1)OCO2 | 2.6% | 3.1%
COc1cc(NC(=O)CN2C(=O)COc3ccc(S(=O)(=O)NC4CCCC4)cc32)cc(OC)c1 | -4.5% | -5.0%
CC(C)CC(=O)Nc1c2c(nn1-c1ccc(F)cc1)CS(=O)(=O)C2 | -10.8% | -13.1%
Cc1ccc(CSc2ncc(Cl)c(C(=O)Nc3nnc(C)s3)n2)cc1 | 3.8% | -0.5%
CC(C)OC(=O)CCNc1n[nH]c(=O)[nH]c1=O | 2.4% | -0.2%
COC(=O)C1=C(c2ccc(F)cc2OCc2ccccc2)C[C@@H]2CC[C@H]1N2C(=O)NCc1ccccc1Br | -24.7% | i
CCn1c(SCC(N)=O)nc2c(c1=O)C1(CCCC1)Cc1ccccc1-2 | -18.3% | .
CCOc1ccc(CCNC(=O)Cn2c(-c3cccs3)cc3ccccc32)cc1 | -12.8% | -6.1%
Cc1cc(C)c2cc(CN(Cc3nnnn3Cc3ccc(F)cc3)C3CCCC3)c(=O)[nH]c2c1 | -8.8% | i
CN(C)S(=O)(=O)Oc1cc(Cl)ccc1C(=O)Nc1ccc(F)cc1F | -1.9% | i
O=C(Cc1ccccc1)NCC1OCCc2ccccc21 (configuration not stated) | -4.5% | -8.0%
O=C(CCCC(=O)N(CC(=O)NC1CCCCC1)c1cccc(F)c1)Nc1ccccn1 | -4.9% | i
COc1ccc(CCNC(=O)COC(=O)/C=C/c2ccc(OC)cc2OC)cc1 | 0.0% | i
O=C(C#Cc1ccccc1)c1ccccc1 | ? | ?
Cc1ccc(OCCC(=O)OCC(=O)N2CCN(S(=O)(=O)c3ccc(C)cc3)CC2)cc1 | -6.1% | -14.5%
CC(C)(C)c1cc(C(=O)O)nn1-c1ccccc1 | -5.3% | i
Cc1ccc(-c2nnc(-c3cccc(NC(=O)c4cccs4)c3)o2)cc1 | ? | ?
O=[N+]([O-])c1ccc(NC(=S)N2CCc3ccccc32)cc1 | -11.3% | -20.1%
COc1ccc2c(OC)cc(=O)n(C)c2c1 | -5.1% | 2.5%
Cc1cc(C)nc(/N=C(\N)Nc2ccc(S(=O)(=O)O)cc2)n1 | -7.2% | i
CC(=O)Nc1nc(NC(=O)/C=C/c2ccccc2)n(-c2ccccc2)n1 | -9.8% | i
C/C(Cn1cnc([N+](=O)[O-])n1)=N\NC(=O)c1ccccc1O | -1.2% | -16.0%
